NPYLR7 agonist = mosquito NPYLR7 agonism; HEK293T NPYLR7/Galpha15, GCaMP6s calcium fluorescence; activation, % at 10 µM; 270,000 compounds, 0.15% hits; AID 1259423; in the data active = activation above about 40%;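 note: 0% = vehicle and 100% = reference agonist at the receptor; some compounds past the cut are filed as inactive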
NPYLR7 agonist max-min = further read-out of NPYLR7 agonist, marked with its call; activation, %; measured here: Max-Min RFU normalised activation; some inactives read as strong as hits;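 span of the calcium signal over five minutes; 0% = vehicle and 100% = native peptide agonist; compound fluorescence can raise it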
Starred values were filed as active, the others as inactive.

SMILES	NPYLR7 agonist	NPYLR7 agonist max-min
Cc1nn(C2CCS(=O)(=O)C2)c2nc(-c3ccccc3)cc(C(=O)N3CCCC3)c12 (stereo not given)	1	6
CC(=O)NCCN1C(=O)SC(=Cc2ccc(OC(F)F)cc2)C1=O	0	18
COCCN1CCCC[C@]2(C[C@H](C(=O)O)[C@H](c3ccccc3)N2C(=O)c2ccc(OC)cc2)C1=O	3	7
COc1ccc(CC(=O)NCC2COc3ccccc3C2)cc1F (stereo not given)	12	10
O=C(COc1ccc(Cl)cc1)N1CCN(c2nc3nccc(-c4cc(Cl)ccc4Cl)n3n2)CC1	4	1
CC(C)c1ccc(-n2nc(C(=O)NC3CC3)c(=O)n(Cc3ccccc3F)c2=O)cc1	-1	6
CC/C=C(/C)C(=O)NCc1cccnc1OCc1ccccc1	-10	-15
Cc1ccc(C(=O)Nn2cnc3c(cnn3C(C)(C)C)c2=O)cc1	3	1
Cc1cc(OCC(=O)NCc2ccc(-c3ccc(Br)cc3)o2)no1	7	5
COCCN(CC(=O)N(CCc1c[nH]c2ccccc12)Cc1ccc(C)cc1)C(=O)C1CCC1	6	9
COCCN(Cc1cc(OC)cc(OC)c1)CC(C)O (stereo not given)	14	13
Cc1nc2c(C)cccn2c(=O)c1NC(=O)c1ccccc1Cl	1	0
Cc1cc(CNC(=O)N(Cc2ccco2)c2cccc(Cl)c2)on1	1	21
CCn1cnnc1SCC(=O)Nc1ccc(F)cc1F	-11	-10
C=C1CC[C@H](O)C/C1=C/C=C1\CCC[C@]2(C)[C@@H]([C@H](C)CCCC(C)C)CC[C@@H]12	1	0
C=CCCC(O)CN(CCCOC)Cc1cccn1Cc1cccc(F)c1 (stereo not given)	-7	-2
COc1ccc(C)cc1NC(=O)COc1ccc(N2CCN(C(C)=O)CC2)cc1	3	1
Cc1ccc(OCC(=O)N=Nc2c(O)n(C)c3ccccc23)cc1	-2	-9
Cc1ccc(Cn2c(C)c(C(=O)NCc3ccccn3)sc2=O)cc1	4	0
CC1CN(CC(=O)Nc2ccccc2Br)C1c1ccccc1 (stereo not given)	5	2
Cn1ccnc1SCc1cc(=O)c(OC(=O)c2ccc(C(F)(F)F)cc2)co1	5	1
Cc1cccc(-n2ncc3c(=O)n4c(nc32)SCC4CC(=O)Nc2nnc(C)s2)c1 (stereo not given)	9	9
Cc1cccc(N(CCC#N)C(=O)c2cc3ccccc3c(=O)[nH]2)c1	1	0
Cc1cc(C(=O)NCC2CCCN(Cc3cccn3-c3nccs3)C2)no1 (stereo not given)	-7	-7
N[C@H]1C[C@@H](C(=O)O)N(Cc2cnc(C3CCCCC3)nc2)C1	15	8
CN(c1ccccc1)N1CC(C(=O)Nc2cccc(Oc3ccccc3)c2)CC1=O (stereo not given)	-8	-11
CC(=O)N1CCc2c(nc(N(C)C)nc2N(C)Cc2cc(C3CC3)n[nH]2)C1	7	-1
Cc1nnc(-c2cccc(NC(=O)C3CCN(C(=O)C#Cc4ccccc4)CC3)c2)s1	-4	-3
CN(Cc1ccc2c(c1)OCO2)C(=O)c1ccc2c(c1)NC(=O)CS2	1	1
Ic1ccc(/C=N\Nc2nc(N3CCCC3)nc(N3CCOCC3)n2)cc1	1	-5
CCOC(=O)C1(C)CCCCCN1C(=O)c1ccc(C(C)(C)C)cc1 (stereo not given)	-5	-10
Cc1cc(CCCC(=O)NCc2n[nH]c(=O)[nH]2)c(C)s1	-4	17
CN(CC(=O)NC1CCCN(c2ccc(C(F)(F)F)cn2)C1)Cc1cccnc1 (stereo not given)	-2	-7
Clc1ccc(-c2nnc(CSc3nnc(C4CC4)n3C3CC3)o2)cc1	-1	4
Cc1ccn2c(C(=O)NCC(C)Oc3cccnc3)c(C)nc2c1 (stereo not given)	11	5
O=C1CCCN1CCCn1ccnc1-c1ccc2c(c1)OC(F)(F)O2	6	4
Fc1ccc(-n2cccn2)c(CN2CCC(OCc3cccnc3)CC2)c1	3	-1
COC(=O)c1ccc(NCC(=O)NCc2ccco2)cc1Cl	7	4
COc1ccc(C2=N/C(=C\C(Cl)=C\c3ccccc3)C(=O)O2)cc1Br	-7	-12
Cn1nc(SCC(=O)O)c(=O)n(C)c1=O	4	4
Cc1ccc(C(=O)CSc2nc(C)c(C)c(C)c2C#N)c(C)c1	-1	-8
O=C(NCCOc1ccccc1)C1CC12c1ccccc1-c1ccccc12 (stereo not given)	2	-3
COC(=O)c1ccc(Cn2c(C)c(C(=O)N(C)Cc3cccc(OC)c3)sc2=O)o1	9	3
Cc1csc(SCc2cc(=O)c(OC(=O)c3ccc(-c4ccccc4)cc3)co2)n1	-4	-9
O=C(NCCc1ccco1)c1ccc(C(=O)c2ccccc2)cc1	12	6
CC1(C)NC(=O)N(CCCC(=O)NCc2ccccc2)C1=O	9	8
COc1ccc(N2C(=O)CSC2c2cccc(NC(=O)C3CC3)c2)cc1 (stereo not given)	-3	7
Cc1cc(C)c(-c2cc(C(N)=O)ccn2)c(C)c1	-6	-7
CC1CC1c1ccc(/C=C/C(=O)NCC2COc3ccccc3C2)o1 (stereo not given)	3	0
Cc1ccc(C(C)C)cc1S(=O)(=O)NCc1ccc2c(c1)OCO2	-12	-10
CCOc1ccc(-c2ccc(=O)n(CCNC(=O)Nc3cccc(Cl)c3)n2)cc1	-4	-5
Nn1c(Cn2cnc3ccccc32)n[nH]c1=S	-3	-5
CCN(C(=O)NCCC(=O)N1CC(C)OC(C)C1)C(C)c1ccc(F)cc1 (stereo not given)	1	-1
CCc1ccc(CN(C)C(=O)Cc2c(C)nc(N)nc2C)nc1	-6	-9
COc1cccc(-c2nc(C=Nc3cccc(Cl)c3C)c(O)o2)c1	-5	-9
CCOCCCN1C(=O)C(=Cc2c(NCC3CCCO3)nc3c(C)cccn3c2=O)SC1=S (stereo not given)	2	-3
O=C1NC2(CCN(C(=O)Nc3ccc(Br)cc3)CC2)Nc2cccc(Cl)c21	2	3
COC(=O)c1c(C)c(C(=O)C(C)N(Cc2ccco2)C(=O)c2cccc(C(F)(F)F)c2)c(C)n1C (stereo not given)	-8	-5
O=[N+]([O-])c1cccc(-n2cccc2/C=N\Nc2nc(N3CCCCC3)nc(N3CCCCC3)n2)c1	-6	-11
COc1cccc(-c2cc(Cn3cc(-c4cccc(O)c4)nn3)no2)c1	3	3
Next section
SMILES	NPYLR7 agonist	NPYLR7 agonist max-min
Cc1cc(C)n(C2CCN(S(=O)(=O)NCc3ccccc3)C2)n1 (stereo not given)	-6	-5
O=C(NC1CCN(c2ccccc2C(=O)NCc2cccnc2)CC1)c1ccc(F)cc1	22	28
CCCCN(CC(=O)Nc1c(-c2ccccc2)c(C)nn1-c1ccc(OC)cc1)C(=O)Nc1ccc(C(=O)OCC)cc1	0	10
CC(=O)N1CCc2cc(NC(=O)C3(C)CCN3CCc3ccccc3)ccc21 (stereo not given)	4	-1
O=C(c1n[nH]c2ccccc12)N1CCOC(COCc2cccc(C(F)(F)F)c2)C1 (stereo not given)	8	11
Cc1ccc(-n2c(SCc3c(F)cccc3Cl)nnc2-c2ccccc2F)cc1	6	8
Fc1cccc(F)c1-c1nc(CSc2nccc(C(F)(F)F)n2)cs1	2	9
CCOC(=O)c1ccc(NCC(=O)Nc2cc(C)on2)cc1	10	4
COc1cc(C(=O)Nc2nnc(-c3ccc(F)cc3)s2)cc(OC)c1OC	-2	-10
Cc1nn2c(NCCN(C)C)cc(-c3ccccc3)nc2c1-c1ccccc1	1	4
COc1ccc(/C=C/C2=NC(=C\c3cccc4ccccc34)/C(=O)O2)cc1	-1	-5
CCc1nc2c(OCc3cccc(Cl)c3)cccn2c1N(C)C(C)=O	14	7
CCC(C(=O)Nc1c(C)nc2sc(C)c(C)n2c1=O)c1ccccc1 (stereo not given)	-2	-3
O=C(c1ccc2c(c1)OCO2)C1CCCN(Cc2nc3ccccc3s2)C1 (stereo not given)	-5	-7
COc1ccc(CCOc2nc(-c3cccs3)n(-c3ccc(NC(=O)c4ccc(OC)cc4)cc3)n2)cc1	16	21
COc1ccc(CN2CCN(Cc3ccc(C#CC(C)(C)O)s3)CC2CCO)cc1C (stereo not given)	13	14
CC(C)Cn1nccc1NC(=O)C(c1ccccc1)c1ccccc1	0	6
Cc1ccc(N2C(=O)CC(Sc3nc4c(cc3C#N)CCCCCC4)C2=O)cc1 (stereo not given)	2	1
Cc1cccnc1CN1CCN(C(=O)c2ccc(CO)o2)CC1	4	3
O=C(CSc1ccc(-c2ccc(-n3ccnc3)cc2)nn1)Nc1ccc(F)cc1	-10	-7
COc1cccc(Cn2c(=O)c(C(=O)NCC3CCCO3)nn(-c3ccc(C(F)(F)F)cc3)c2=O)c1 (stereo not given)	16	16
CCOC(=O)c1ccc(NC(=O)N(CCC(C)C)CC(=O)Nc2cc(C(C)(C)C)nn2-c2ccc(Cl)cc2)cc1	20	20
COc1ccc(C2CC(c3ccc(Br)cc3)=Nc3nnnn32)cc1OC (stereo not given)	4	3
O=C1C2C(c3ccccc3)C=CC(c3ccccc3)C2C(=O)N1c1cccc(Br)c1 (stereo not given)	-3	-6
CC(Sc1nc(N)c(C#N)cc1C#N)C(=O)Nc1ccccc1C(F)(F)F (stereo not given)	11	4
C=CCN(CC=C)C(=O)CSc1nnc(-c2cc(OC)cc(OC)c2)n1C1CCCCC1	-2	-1
CCOC(=O)c1c(NC(=O)CCC(=O)OC)sc2c1Cc1ccccc1-2	4	0
O=C(NCC(O)C1CC1)NC1CC1C1CCCCC1 (stereo not given)	6	3
COCCN(CC(=O)Nc1nc(CC(=O)N2CCCC2)cs1)C(=O)c1ccc(C)cc1	2	6
COC(=O)C(Cc1ccccc1)NC(=O)C1(C(=O)OC)CC1 (stereo not given)	0	-4
CCOC(=O)c1[nH]c(C)c(C(=O)CN(CC)S(=O)(=O)c2cccc(C(F)(F)F)c2)c1C	20	23
COc1ccc(NC(=O)N(CC(=O)N(Cc2ccc3c(c2)OCO3)Cc2ccc(C)o2)CC2CCCO2)c(OC)c1 (stereo not given)	-1	5
CC1(C(=O)NS(C)(=O)=O)CCN1C(=O)CCc1ccccc1 (stereo not given)	1	0
O=C(NC1CC1c1cccc(Cl)c1)C1CCCN(C(=O)C2CC2)C1 (stereo not given)	-21	-21
COc1cccc(S(=O)(=O)Nc2ccc(Cl)c(C(F)(F)F)c2)c1	2	7
CCOc1ccc(-c2ncncc2Oc2cccc(OC)c2)c(O)c1	4	2
O=C(CN1CCCCCC1=O)OCc1csc(-c2ccco2)n1	5	3
CCC(CC)C(CNC(=O)Nc1ccn(CCOC)n1)N(C)C (stereo not given)	5	1
Cc1cc(C(=O)NCCSc2ncn[nH]2)c(NC(=O)C(C)(C)C)s1	12	0
COc1ccc(OC)c(C2SCC(=O)N(CC(=O)NCc3ccco3)c3c2c(C(C)(C)C)nn3-c2cccc(C)c2)c1 (stereo not given)	4	11
Cc1ncc2c(c1CNC(=O)/C=C/c1cccs1)CCN(C(=O)c1cccc(Cn3cccn3)c1)C2	32	15
CCc1nc2c(OCC(=O)C(C)(C)C)cccn2c1N(C=O)Cc1ccc(OC)cc1	2	0
Cc1cc(C(=O)N(Cc2ccccn2)c2nc3c(C(C)C)cccc3s2)no1	7	4
CN(C)CCN(Cc1cc(NC(=O)C2CCCC2)ccc1N(C)C)C(=O)c1ccco1	15	13
c1ccc2oc(N3CCN(Cc4ccc(-n5cncn5)cc4)CC3)nc2c1	0	1
COCCN(Cc1ccc(OC)cc1)c1c(C)nc2ccc(C(=O)NCCCn3ccnc3)cn12	-2	-7
COC(=O)C(C)(C)NC(=O)c1cc(-c2ccccc2C)n[nH]1	2	6
CC(C)c1ccc(CC(=O)N2CCC2(C)C(=O)Nc2ccc3c(c2)OCCO3)cc1 (stereo not given)	3	2
O=C(Cn1cnc2c(nnn2-c2ccc(Cl)cc2)c1=O)NCCc1ccccc1	16	15
CCC(CO)NC(=O)Cc1ccc(NC(=O)C2CC2C)cc1 (stereo not given)	10	9
Cc1cc(C)nc(NNc2ncnc(N)c2[N+](=O)[O-])n1	5	8
CCN(Cc1ccccc1)C(=O)Cn1nc2cc(-c3ccccc3)nc(C)n2c1=O	-9	-10
COC(C)c1nc(CN2C(=O)c3cccc4cccc2c34)cs1 (stereo not given)	3	7
CC(Oc1ccccc1Cl)C(=O)N1CCOC(COCc2ccc(F)cc2Cl)C1 (stereo not given)	-21	-17
CN(Cc1nc2ccccc2s1)C(=O)c1ccc2c(=O)n3c(nc2c1)CCCCC3	-7	-1

Structural class, the entries above with a Cl atom (16)
SMILES	NPYLR7 agonist	NPYLR7 agonist max-min
O=C(COc1ccc(Cl)cc1)N1CCN(c2nc3nccc(-c4cc(Cl)ccc4Cl)n3n2)CC1	4	1
Cc1nc2c(C)cccn2c(=O)c1NC(=O)c1ccccc1Cl	1	0
Cc1cc(CNC(=O)N(Cc2ccco2)c2cccc(Cl)c2)on1	1	21
Clc1ccc(-c2nnc(CSc3nnc(C4CC4)n3C3CC3)o2)cc1	-1	4
COC(=O)c1ccc(NCC(=O)NCc2ccco2)cc1Cl	7	4
COc1ccc(C2=N/C(=C\C(Cl)=C\c3ccccc3)C(=O)O2)cc1Br	-7	-12
CCOc1ccc(-c2ccc(=O)n(CCNC(=O)Nc3cccc(Cl)c3)n2)cc1	-4	-5
COc1cccc(-c2nc(C=Nc3cccc(Cl)c3C)c(O)o2)c1	-5	-9
O=C1NC2(CCN(C(=O)Nc3ccc(Br)cc3)CC2)Nc2cccc(Cl)c21	2	3
Cc1ccc(-n2c(SCc3c(F)cccc3Cl)nnc2-c2ccccc2F)cc1	6	8
CCc1nc2c(OCc3cccc(Cl)c3)cccn2c1N(C)C(C)=O	14	7
CCOC(=O)c1ccc(NC(=O)N(CCC(C)C)CC(=O)Nc2cc(C(C)(C)C)nn2-c2ccc(Cl)cc2)cc1	20	20
O=C(NC1CC1c1cccc(Cl)c1)C1CCCN(C(=O)C2CC2)C1 (stereo not given)	-21	-21
COc1cccc(S(=O)(=O)Nc2ccc(Cl)c(C(F)(F)F)c2)c1	2	7
O=C(Cn1cnc2c(nnn2-c2ccc(Cl)cc2)c1=O)NCCc1ccccc1	16	15
CC(Oc1ccccc1Cl)C(=O)N1CCOC(COCc2ccc(F)cc2Cl)C1 (stereo not given)	-21	-17

These rows are one share of the data (hit frequency here may not be typical).
